Screening data: PubChem BioAssay, ICCB-Longwood Screening Facility, Harvard Medical School
HCMV UL50-53 inh: cytomegalovirus nuclear egress complex inhibition; HTRF UL50-UL53 interaction, normalized percent inhibition; inhibition, % (concentration not given with the values); 0.15% of 190,000 active;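 active = both replicates at 50% or more, plus weaker picks with an unusually low signal ratio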;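 note: stock transfer was 100 nL into about 20 µL; 0% = negative control wells and 100% = wells with untagged competitor protein; inactives centre near -12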
GIV Gai3 FP: inhibitors of GIV GBA-motif binding to rat Galpha-i3; P08753; Galpha-i3/FITC-GIV peptide fluorescence polarization, 90 min; hits give low values; scaled: aluminum fluoride 0%, vehicle 100%; percent of control (FP), % (concentration not given with the values); 0.42% of 210,000 active; AID 1224905;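 active = replicate mean at 85% of control or lower, very high polarization wells dropped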;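 note: wells of about 15 µL received 100 nL stock; the first replicate is given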
Target sequence (P08753 whole entry, looked up): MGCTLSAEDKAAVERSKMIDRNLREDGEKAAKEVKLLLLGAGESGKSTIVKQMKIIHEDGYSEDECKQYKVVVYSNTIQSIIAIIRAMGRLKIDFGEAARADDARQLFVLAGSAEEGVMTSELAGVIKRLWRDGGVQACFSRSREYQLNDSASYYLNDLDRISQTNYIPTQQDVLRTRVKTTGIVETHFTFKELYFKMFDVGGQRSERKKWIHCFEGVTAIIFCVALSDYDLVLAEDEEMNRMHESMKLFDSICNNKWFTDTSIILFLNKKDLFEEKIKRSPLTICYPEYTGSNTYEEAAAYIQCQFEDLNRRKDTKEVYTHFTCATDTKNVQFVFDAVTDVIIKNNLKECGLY
Sa growth inh: inhibitors of Staphylococcus aureus growth at 42 °C; relative growth, % (test concentration not listed); 0.53% of 170,000 active; AID 720641; S. aureus RN4220 growth, OD600, 20 h; hits give low values;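 active = growth at 42 °C up to 50% and 20 or more points under that at 30 °C, or under 10% at both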;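 note: 300 nL library stock went into each well; scaled to the means of positive and negative controls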
Sa growth inh second temp: also measured in Sa growth inh; calls as there; relative growth, %; measured here: growth at 30 °C;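 optical density after 20 h as mean of two plates; 100% = untreated growth and lower means inhibition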
Starred values were filed as active, the others as inactive; nt = no result given; & = joins results of further samples.

cpd	smiles	GIV Gai3 FP	Sa growth inh second temp	Sa growth inh	HCMV UL50-53 inh
1	COC(=O)c1sc2cccc(F)c2c1S(=O)(=O)N1CCc2ccccc2C1	106	nt	nt	-3
2	N#CCc1nc2ccccc2c(=O)[nH]1	nt	63	51	-15
3	COc1ccc(CC(=O)N(Cc2nc(-c3ccc(Cl)cc3)no2)C(C)C)cc1OC	96	95	109	nt
4	Clc1ccc(OCc2nc3ccccc3n2Cc2ccccc2)c(Cl)c1	107	89	96	-62
5	O=C(COC(=O)/C=C/c1cccc(Cl)c1)NC1CCCCC1	nt	90	91	-1
6	CCCc1nc(-c2cc3cccc(C)c3nc2N2CCCC2)no1	102	nt	nt	-6
7	O=C(CSc1ncn[nH]1)Nc1cccc2ccccc12	93	97	97	-34
8	COc1ccc(C2=C(C)C(=O)N(CC(=O)NCc3cc(OC)ccc3OC)S2(=O)=O)cc1	103	nt	nt	-38
9	Cc1cccc(Cc2c(C)nc3nc(SCc4cccc(F)c4)nn3c2C)c1	98	96	99	nt
10	CCOC(=O)c1sc(N2C(=O)C(O)=C(C(=O)c3ccco3)C2c2ccco2)nc1C (configuration not stated)	104	35	60	-67
11	O=C(NCCc1cccs1)c1ccc(Cl)cc1	109	94	101	-18
12	O=C(C1CC(=O)N(c2ccc(Cl)cc2)C1)N1CCN(Cc2ccc3c(c2)OCO3)CC1 (configuration not stated)	106	60	98	1
13	CC(NC(=O)c1ccc(-c2ccccc2)cc1)C(=O)O (configuration not stated)	105	92	70	15
14	O=C(CN1CCc2sccc2C1c1cccs1)N1CCC(c2ccccc2)=N1 (configuration not stated)	nt	92	78	-11
15	Cc1cc(C)c(S(=O)(=O)N(CC#N)CC#N)c(C)c1	nt	84	88	-16
16	CC1=CC(C)(C)NC(=S)N1c1ccc(C(C)C)cc1	nt	34	70	-15
17	N/C(=N\O)c1ccc(NC(=O)c2ccccn2)cc1	nt	81	96	-15
18	Cc1ccc(S(=O)(=O)/N=C(\c2ccccc2)N(C)S(=O)(=O)c2ccc(C)cc2)cc1	98	90	94	nt
19	CN1CCSc2ccc(C(=O)NCCN3CCCC3)cc21	100	91	102	nt
20	CCOC(=O)c1csc(Cc2ccc(-c3csnn3)cc2)n1	100	85	87	-7
21	O=C(Cn1c(=O)oc2cc(S(=O)(=O)N3CCCCC3)ccc21)NCc1ccc(Cl)cc1	104	89	100	-37
22	CCc1cc2c(cc3c(=O)n(CC(=O)NC4CCC(C)CC4)ncn32)s1 (configuration not stated)	102	89	127	-28
23	CCCOc1nnc(-c2ccc(OC)cc2)c2ccccc12	103	nt	nt	-10
24	COc1cccc(NC=C2C(=O)OC(C)(C)OC2=O)c1	97	88	99	-13
25	FC(F)(F)c1nc(Sc2ncccc2C(F)(F)F)n[nH]1	109	71	105	1
26	c1ccc2c(c1)CCCC2C1=NCCN1 (configuration not stated)	101&102	83	88	-58&1&-15&-59&-22
27	CN(C)/C=C1/C(=O)N(c2nc3ccccc3s2)N=C1C(F)(F)F	103	nt	nt	-20
28	Cc1ccc(CCNC(=O)CCCn2c(=O)c3ccccc3n(Cc3ccccc3C)c2=O)cc1	99	94	97	-1
29	Cc1cccc(NS(=O)(=O)c2ccc3[nH]c4c(c3c2)CCCCCC4)c1	100	74	90	nt
30	CCOC(=O)c1sc2nc(C)nc(N3CCC(C)CC3)c2c1C	97	91	96	nt
31	CCCCC(=O)Nc1ccc(N2CCN(C(=O)CCC)CC2)c(Cl)c1	101	92	131	-8
32	O=c1[nH]c(=O)n(C2CCCCC2)c(O)c1C1=Nc2ccccc2SC(c2ccc(Cl)cc2)C1 (configuration not stated)	101	86	108	-12
33	Cc1nn(-c2ccc(F)cc2)c(-n2cccc2)c1C(=O)N1CCN(c2ccc(F)cc2)CC1	101	95	123	nt
34	COc1ccc2oc(=O)c(-c3ccccc3)cc2c1	nt	80	93	-18
35	CCc1cccc(C)c1NC(=O)C1COc2ccccc2O1 (configuration not stated)	96	93	108	nt
36	COc1ccc2c(c1)C(=O)/C(=C/c1ccc(N(C)C)cc1)CC2	102	87	109	nt
37	COC(=O)c1cnc(N2CCN(c3ncc(C(=O)OC)c(C(F)(F)F)n3)CC2)nc1C(F)(F)F	104	59	97	-25
38	COc1cccc(NC(=O)c2sc3nc(C)c(C(=O)Nc4ccc(C)cc4C)c(-c4ccccc4Cl)c3c2N)c1	105	100	102	-12
39	Cc1ccc(C)n1-c1c(C(=O)NCCCN2CCN(c3ccc(F)cc3)CC2)sc2ncccc12	100	70	78	nt
40	Cc1ccccc1SCC(=O)OC(C)C(N)=O (configuration not stated)	nt	97	95	-14
41	O=C(O)c1cccn2c(=O)c3ccc(F)cc3nc12	100	nt	nt	-46
42	O=C(NCC1CCCO1)C1CC(c2ccc(F)cc2)=NO1 (configuration not stated)	101	95	101	nt
43	O=C1C2C3C=CC(C3)C2C(=O)N1CCN1CCN(S(=O)(=O)c2ccc3ccccc3c2)CC1 (configuration not stated)	102	nt	nt	-18
44	COC(=O)c1cc2c(cc1NC(=O)Cn1ncc3c1-c1cc(C)ccc1OC3)OCO2	99	87	101	2
45	COc1cccc(C(=O)Nc2cccc(C(=O)OCc3cc(=O)n4c(C)csc4n3)c2)c1	105	95	101	nt
46	Cc1ccc2c(c1)N(CCCC(=O)N1CCN(c3c(C)n(C)c(=O)n(C)c3=O)CC1)C(=O)CO2	100	nt	nt	-31
47	O=C(Cc1nc2ccccc2[nH]1)Oc1ccccc1	nt	82	104	-4
48	C=CCn1c(SCC(=O)Nc2sc3c(c2C(N)=O)CCC3)nc2sc(C)c(C)c2c1=O	nt	94	109	-15
49	NC(N)=NCc1cccc(I)c1	104	nt	nt	-4&14
50	COc1ccc(C(=O)c2sc3nc(-c4ccc(C)cc4)cc(C(F)(F)F)c3c2N)cc1	111	108	102	-11
51	Nc1nc(C2CCCCC2)cs1	nt	88	101	-7
52	Cc1nc(NCC(=O)O)c2c3c(sc2n1)CCCC3	104	78	77	-18
53	O=C(Cn1c(-c2cccs2)cc2ccccc21)NCc1cccs1	96	75	91	-13
54	Cc1ccc2c(=O)cc(C(=O)Nc3ccc(S(=O)(=O)Nc4onc(C)c4C)cc3)oc2c1C	99	82	104	-28
55	O=C(/C=C/c1ccco1)NCc1ccccc1C(F)(F)F	103	77	97	nt
56	O=C(/C=C/c1ccc(S(=O)(=O)N2CCCCCC2)cc1)OCc1nnc(-c2ccccc2)o1	nt	87	94	-34
57	CCc1ccccc1N=C1SCC(=O)N1C	102	92	118	2
58	O=C(O)COCC(=O)N1CCN(c2cc(C(F)(F)F)nc3ccccc23)CC1	103	85	102	-40
59	COc1ncnc(Cl)c1N	107	97	122	3
60	Cc1ccc(Cl)cc1NS(=O)(=O)c1ccc2c(c1)NC(=O)CC(=O)N2	103	nt	nt	-34

Additional compounds follow:
cpd	smiles	GIV Gai3 FP	Sa growth inh second temp	Sa growth inh	HCMV UL50-53 inh
61	COC(=O)c1cc2sc(Cl)cc2n1CC(=O)N1CCCc2ccccc21	108	93	113	nt
62	Cc1c(C(=O)Nc2ccc(F)cc2)sc2ncnc(N3CCN(C)CC3)c12	101	nt	nt	-40
63	CC1(C)CC(=O)c2cnc(SCCS(=O)(=O)c3ccc(Cl)cc3)nc2C1	113	91	119	5
64	COc1ccc(N2COc3ccc(OC)cc3C2)cc1	97	77	90	nt
65	Cc1ccccc1N=C1SCCN1C(=O)c1ccc2c(c1)OCCO2	nt	94	94	-10
66	COc1ccccc1NC(=O)CCc1nc(-c2nn(-c3ccccc3)c(=O)n(C)c2=O)no1	105	nt	nt	-50
67	CC(=O)N1CCCc2cc(S(=O)(=O)NCc3ccc(N(C)C)cc3)ccc21	99	82	99	nt
68	CCc1ccc(CNC(=O)C2CCN(C(=O)N3CC(CC)Oc4ccc(C)cc43)CC2)cc1 (configuration not stated)	105	72	100	-7
69	CCC(c1nnnn1CCOC)N1CCN(c2nc3ccccc3s2)CC1 (configuration not stated)	104	81	93	-34
70	Cc1ccc2c(c1)c1c3n2CCN(C(=O)Cn2c(-c4ccccc4)noc2=O)C3CCC1 (configuration not stated)	106	90	129	2
71	Oc1c(C(c2ccccc2)N2CCN(c3cccc(Cl)c3)CC2)sc2nc(-c3ccco3)nn12 (configuration not stated)	93	54	96	nt
72	CCN1CCN(c2cc(NCC(=O)O)c3c4c(onc24)-c2ccccc2C3=O)CC1	108	95	99	-72
73	O=C(CSc1nnc(COc2ccc(Cl)cc2)o1)Nc1ccccc1	100	97	81	6
74	COc1ccc(CSc2nc3ccncc3n2CC(=O)Nc2ccc(Br)cc2F)cc1	102	nt	nt	-11
75	NC(=O)c1ccccc1N/C=C/C(=O)c1ccccc1	109	55	114	-119
76	COc1cccc(-c2csc(-c3c(N)c(C(=O)c4ccc(F)cc4)n4ccccc34)n2)c1	106	nt	nt	-2
77	CCc1ccccc1S(=O)(=O)Cc1ccc(C(=O)NCc2cccs2)o1	111	86	101	10
78	CCCS(=O)(=O)N1CCCC(C(=O)NC(C)C)C1 (configuration not stated)	107	94	90	-31
79	CCCCN=C1SCC(c2c[nH]c3ccccc23)=NN1C	nt	82	88	-50
80	Cc1ccc2nc(-c3cccc(Cl)c3)c(Nc3ccc4c(c3)OCO4)n2c1	103	90	107	-8

Quoted at random: four entries already listed.
cpd	smiles	GIV Gai3 FP	Sa growth inh second temp	Sa growth inh	HCMV UL50-53 inh
65	Cc1ccccc1N=C1SCCN1C(=O)c1ccc2c(c1)OCCO2	nt	94	94	-10
71	Oc1c(C(c2ccccc2)N2CCN(c3cccc(Cl)c3)CC2)sc2nc(-c3ccco3)nn12 (configuration not stated)	93	54	96	nt
66	COc1ccccc1NC(=O)CCc1nc(-c2nn(-c3ccccc3)c(=O)n(C)c2=O)no1	105	nt	nt	-50
61	COC(=O)c1cc2sc(Cl)cc2n1CC(=O)N1CCCc2ccccc21	108	93	113	nt

Later entries.
cpd	smiles	GIV Gai3 FP	Sa growth inh second temp	Sa growth inh	HCMV UL50-53 inh
81	CCN1c2ccccc2-n2cccc2C12CCN(C(=O)Nc1ccccc1Br)CC2	100	89	83	nt
82	CCCN(CCC)C(=O)Cn1c(=O)n(-c2ccc(OC)cc2)c(=O)c2ccc(C(=O)NCc3ccc(C)cc3)cc21	98	91	108	-21
83	CCCCN1C(=O)CSc2c(c3ccccc3n2C)C1C(=O)NCCC(C)C (configuration not stated)	96	nt	nt	-20
84	COc1ccc(NC(=O)C(C)n2sc3ccccc3c2=O)cc1 (configuration not stated)	101	104	103	nt
85	CCC(Sc1nc2cc(OC)c(OC)cc2c2nc(-c3ccccc3)nn12)C(=O)NCc1ccco1 (configuration not stated)	104	80	80	-11
86	CS(=O)(=O)Nc1cc(C(=O)O)cnc1N1CCCC1	92	nt	nt	-45
87	Cn1nc(C(=O)N2CCCCC2)c2c1CCN(C(=O)NC1CCCC1)C2	105	nt	nt	-7
88	O=S(=O)(NCc1nc(-c2ccccc2)no1)c1ccccc1	101	77	95	nt
89	O=C(Nc1cccc2ncccc12)C1CC(=O)N(Cc2ccco2)C1 (configuration not stated)	nt	97	80	-42
90	CN(CCNC(=O)Cn1ncc2c3ccccc3n(C)c2c1=O)C1CCCCC1	106	91	109	8
91	CN1CCN(C(=O)c2ccc3c(c2)N(Cc2ccccc2F)C(=O)c2ccccc2S3(=O)=O)CC1	102	94	107	4
92	O=C(NCc1ccccc1)C1CCN(C(=O)c2cnn(-c3ccccc3)c2-n2cccc2)CC1	104	87	82	-1
93	CC1CCN(C(=O)COc2ccc(-c3nn(C)c(=O)c4ccccc34)cc2)CC1	107	90	87	4
94	O=C(Cc1c[nH]c2ccccc12)N1CCCN(c2ccc(=O)n(-c3ccccc3)n2)CC1	106	nt	nt	-13
95	Cc1ccccc1-c1nc2scc(CCNC(=O)Cc3ccc(F)cc3)n2n1	99	nt	nt	-18
96	CC(C)CC(=O)Nc1ccc(C(=O)COC(=O)c2ccc(-n3cnnn3)cc2)cc1	nt	84	55	-22
97	Cc1ccc(C)c(S(=O)(=O)n2ccc(C)n2)c1	104	107	115	-1
98	CCc1ccc(NC(=O)Nc2ccccc2)cc1	106	97	93	-2
99	CCOc1ccccc1C(=O)NCc1cn2ccccc2n1	111	81	115	nt
100	COC(=O)N/N=C/c1ccc2c(c1)OCO2	nt	95	104	-80
101	OCC#Cc1cnc2ccccc2c1	103	80	89	-67
102	O=c1oc(-c2ccccc2Br)nc2sc3c(c12)CCC3	104	96	117	nt
103	COc1ccc(Cl)cc1-c1nc(C=Nc2ccc(Br)cc2)c(O)o1	105	nt	nt	4
104	O=c1n(CCSc2nnnn2-c2ccccc2)nnn1-c1ccccc1	103	92	81	nt
105	CCOC(=O)c1c(Nc2ccc(OC)c(Cl)c2)n[nH]c1C	99	77	101	nt
106	CC1(C)OC2C(CSC#N)OC(n3cnc4c(=O)[nH]cnc43)C2O1 (configuration not stated)	105	nt	nt	-11
107	COc1ccc(C2C(C#N)=C(N)OC(C3CC3)=C2C#N)cc1 (configuration not stated)	106	79	84	-82
108	COCCn1c(SCc2cc(=O)n3ccsc3n2)nnc1-c1ccncc1	nt	91	85	3
109	CCN(CC)c1ccc2cc(C(=O)Nc3ccc(NC(C)=O)cc3)c(=O)oc2c1	83*	93	94	-16
110	CCc1ccc2c(c1)-c1ccccc1S(=O)(=O)N2CC(=O)Nc1ccc2c(c1)n(C)c(=O)n2C	100	nt	nt	-13
